KCNQ2 inh = KCNQ2 potassium channel inhibitors, primary screen, cell-based, CHO-K1, FluxOR thallium flux, B-score (AID 2156). 20 min; stronger effect = lower value; only compounds with negative scores are shown here; some inactives read as strong as hits. B-score at 10 µM. hit rate 1.1% among 310,000;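 active means fluorescence ratio B-score at most minus 3 library SDs, with starting brightness B-score within 2 library SDs, cut at about -5.5 in these data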
Target sequence (O88943 whole entry, looked up): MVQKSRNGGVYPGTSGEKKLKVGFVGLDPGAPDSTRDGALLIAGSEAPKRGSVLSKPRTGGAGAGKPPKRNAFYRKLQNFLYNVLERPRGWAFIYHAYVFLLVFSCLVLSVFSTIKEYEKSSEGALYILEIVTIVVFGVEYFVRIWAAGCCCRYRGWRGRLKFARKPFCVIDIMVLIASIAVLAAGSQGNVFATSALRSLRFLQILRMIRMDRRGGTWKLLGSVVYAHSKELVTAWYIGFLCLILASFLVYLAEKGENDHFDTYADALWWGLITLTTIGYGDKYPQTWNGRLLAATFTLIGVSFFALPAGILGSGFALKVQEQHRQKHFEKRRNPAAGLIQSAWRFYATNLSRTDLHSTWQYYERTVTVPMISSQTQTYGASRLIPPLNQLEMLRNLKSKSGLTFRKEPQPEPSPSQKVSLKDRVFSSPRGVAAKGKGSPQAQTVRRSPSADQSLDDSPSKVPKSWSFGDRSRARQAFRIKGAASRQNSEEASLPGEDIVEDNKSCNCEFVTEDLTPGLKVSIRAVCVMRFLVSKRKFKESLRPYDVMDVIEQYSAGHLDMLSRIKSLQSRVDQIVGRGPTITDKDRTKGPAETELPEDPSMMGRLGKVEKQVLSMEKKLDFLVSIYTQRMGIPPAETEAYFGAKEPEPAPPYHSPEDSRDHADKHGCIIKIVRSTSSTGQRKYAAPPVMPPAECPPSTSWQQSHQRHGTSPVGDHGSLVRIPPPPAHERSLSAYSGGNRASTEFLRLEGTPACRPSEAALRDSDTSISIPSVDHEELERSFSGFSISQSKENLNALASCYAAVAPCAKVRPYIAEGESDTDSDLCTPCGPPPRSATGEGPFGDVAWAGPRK
KCNQ2 inh baseline = second read-out of KCNQ2 inh, no call of its own (marks repeat the call); B-score; measured here: initial fluorescence intensity artifact check;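 brightness before thallium and not channel activity; 0 = typical well and far values either way flag optical interference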
* hit, by the source's call; i = inactive. Some of the compounds tested; the hit share may differ from the screen's.

SMILES | KCNQ2 inh | KCNQ2 inh baseline
COc1ccc(CN(CC(=O)NCCc2ccccc2)C(=O)CCC(=O)Nc2cc(C)ccn2)cc1 | i | -2.31
O=C(c1ccc(-c2ccc(Cl)cc2)o1)N1CCN(c2ccc([N+](=O)[O-])cc2Cl)CC1 | i | -2.1
COc1ccc(CNC(=O)CN(c2ccccc2)S(=O)(=O)c2ccccc2[N+](=O)[O-])cc1 | i | -0.36
CC1(C)OC(=O)C(=CNc2ccccn2)C(=O)O1 | i | 0.91
CCC(C)NCCC(=O)Nc1ccc(Cl)c(S(=O)(=O)Nc2ccc(Cl)cc2)c1 (stereo not drawn) | i | 0.66
O=C(CCCn1ncn2c(cc3occc32)c1=O)NCc1cccc(Cl)c1 | i | 1.76
CN(C)S(=O)(=O)c1ccc(N2CCCC2)c(C(=O)NCc2ccccc2)c1 | i | -0.05
O=C1C(c2ccccc2)NC(=S)N1C1CCCCC1 (stereo not drawn) | i | -2
O=C(CCN1CCOCC1)c1ccc2c(c1)OCCO2 | -7.41* | 2.01*
Cc1ccc(NC(=O)C2CCN(S(=O)(=O)c3cccs3)CC2)cc1 | i | -0.62
O=C(C(Cl)c1ccccc1)N1CCOCC1 (stereo not drawn) | i | -1.96
CCOC(=O)C1=C(C)NC2=C(C(=O)c3ccccc32)C1c1ccc([N+](=O)[O-])o1 (stereo not drawn) | i | 0.6
CC1=NNC(=O)/C1=C\c1cn(-c2ccccc2)nc1-c1ccccc1 | i | -1.66
O=C(NN1C(=O)C2C3CCC(O3)C2C1=O)c1ccc(Br)o1 (stereo not drawn) | i | -0.98
COc1ccc(N2CCN(C(=O)c3cc(=O)[nH]c4ccccc34)CC2)cc1 | i | 0.03
Cc1cc2cc(CNC(=O)Cc3cccs3)ccc2n1C | i | -0.82
COc1cc(/C=N/NC(=O)CCN2CCN(C(c3ccccc3)c3ccccc3)CC2)ccc1O | i | -0.13
N#C/C(=C\N1CCN(Cc2ccc3c(c2)OCO3)CC1)c1nc2ccccc2s1 | i | 0.15
CC(=O)N/N=C\c1ccccc1OC/C=C/c1ccccc1 | i | -2.21
CCOc1cc(Br)c(CC(=O)O)cc1OCC | i | 0.69
O=C(CCn1nc(-c2ccccc2)ccc1=O)N1CCCC1 | i | 1.25
COC(=O)c1ccc(NC(=O)CNS(=O)(=O)c2cccs2)cc1 | i | 0.18
C/C(CC(C)(C)C1CCCCC1)=N\NC(N)=S | i | 1.3
COc1ccc(S(=O)(=O)CC2(O)CCN(C(=O)CC(C)C)CC2)cc1 | i | -0.13
Cc1ccc(NC(=O)CCS(=O)(=O)c2ccc(Br)s2)cc1 | i | -2.61
CC(C)(C)C(=O)CCN1C(=O)C2(OCCO2)c2ccccc21 | i | -0.58
O=C(N/N=C/c1cc([N+](=O)[O-])ccc1O)C1CCCCC1 | i | 0.42
CCCN1C(=O)c2[nH]nc(-c3cc(Cl)c(C)cc3O)c2C1c1ccc(O)c(OC)c1 (stereo not drawn) | i | 0.62
COc1ccc(CCNC(=O)CSCc2ccc(Br)cc2)cc1OC | i | -0.78
Cc1nnc(CN(C)C(=O)CC2C(=O)NCCN2Cc2ccccc2C)o1 (stereo not drawn) | i | 1.56
COc1ccc(Cn2c(=O)oc3ccc(C)cc32)cc1 | i | 0.75
COc1ccccc1C/C(N)=N/OC(=O)COc1cc(C)cc(C)c1C | i | -2.2
Cc1ccc(C)c(S(=O)(=O)N2CCCOC2CNC(=O)C(=O)NC2CCCC2)c1 (stereo not drawn) | i | -0.75
CCN(CC)C(=O)C1CCN(Cc2cccc(OCc3ccccc3)c2)CC1 | i | -0.57
NC(=O)C1(N2CCCCC2)CCN(C2CC(=O)N(Cc3cccs3)C2=O)CC1 (stereo not drawn) | i | -0.15
CCN1C(=O)[C@H]2[C@@H](c3ccc(-c4ccc(OC)cc4)cc3)N[C@@](Cc3ccccc3)(C(=O)OC)[C@H]2C1=O | i | 0.92
O=C1NC2=C(C(=O)c3ccccc32)C(c2ccccc2)N1 (stereo not drawn) | i | -2.26
Cc1cc(N)n(-c2cc(C)c3ccccc3n2)n1 | i | -0.85
COc1ccc(OCCC(=O)OCC(=O)NC(=O)NC2CCCCC2)cc1 | i | 1.37
CC12CCC(=O)N1C(C(=O)Nc1cc(C(F)(F)F)ccc1N1CCOCC1)CS2 (stereo not drawn) | i | -2.81
N#Cc1ccccc1NC(=O)CSc1nccn1CCc1ccccc1 | i | 0.55
CCCCCc1ccc(OCCC[n+]2ccccc2)c(CCCCC)c1 | i | -0.41
CCOC(=O)c1cc(C)[nH]c(=S)c1C#N | i | 2.18
Cc1cc(/C=N/NC(N)=S)c(C)n1-c1ccc(Br)cc1 | i | 0.26
CCOC(=O)C1(Cc2cccc(F)c2)CCN(Cc2c(C)nn(CC)c2C)CC1 | i | -0.43
c1ccc2c(c1)Cc1cc3ccccc3nc1-2 | i | -0.22
CSc1nc2nc(-c3cccc(C(F)(F)F)c3)ccn2n1 | i | 1.12
NCCc1c(-c2ccccc2)n(-c2ccccc2)c2ccccc12 | -6.95* | 1.37*
CC(C)Nc1cc(C(C)(C)C)nc2c(-c3ccccc3)cnn12 | i | -1.24
CC(=O)NC(CC(=O)N1CCN(C(C)=O)CC1)c1ccccc1 (stereo not drawn) | i | 0.3
COc1ccc(NC(=O)c2ccccc2Oc2ccccc2)c(OC)c1 | i | -0.67
O=C(c1ccc(COc2ccc3c(c2)CCC3)o1)N1CCN(c2ccccc2)CC1 | -7.99* | 0.38*
Cc1nc(-c2ccccc2Cl)sc1C(=O)/C=C/N(C)C | i | 0.91
Clc1ccc(C2CC(c3ccccc3)Nc3ncnn32)cc1 (stereo not drawn) | i | -0.03
Cc1ccc(C2=C/C(=C/c3cccs3)C(=O)O2)cc1 | i | -0.05
CC(NC(=O)c1ccccc1F)c1nnc(SCC(=O)NC2CCCCC2)n1C (stereo not drawn) | i | -0.66
CCN(c1cccc(C)c1)S(=O)(=O)c1ccc(-c2cc(C)no2)s1 | i | -0.8
COc1cc2c(cc1OC)C(c1cc(Br)ccc1O)N(C(C)=O)CC2 (stereo not drawn) | i | 0.22
O=C(C1=NN[C@@H]2C(=O)N(c3ccccc3C(F)(F)F)C(=O)[C@H]12)C(c1ccccc1)c1ccccc1 | i | -1.87
Cc1ccc(C(=O)C[n+]2ccccc2)cc1 | i | 2.05

Other compounds follow.
SMILES | KCNQ2 inh | KCNQ2 inh baseline
CCOC(=O)N1CCN(C(=O)C2CCC(=O)N(Cc3cccc(C(F)(F)F)c3)C2)CC1 (stereo not drawn) | i | -0.84
CCc1ccc(S(=O)(=O)Nc2ccncc2)cc1 | i | 1.53
CCN(CC)CCCNC(=O)c1cc2c(-c3ccc(Cl)cc3)nn(C)c2s1 | i | -0.32
COC(=O)C(NC(=O)c1ccccc1C)(Nc1ncc(S(=O)(=O)c2ccc([N+](=O)[O-])cc2)s1)C(F)(F)F (stereo not drawn) | i | 2.37
COC(=O)c1ccccc1NC(=S)N(Cc1ccc2c(c1)OCO2)Cc1cc2cccc(C)c2[nH]c1=O | i | 1.38
COc1ccc(C(=O)NCc2ccc(N3CCN(C(=O)OC(C)(C)C)CC3)cc2)cc1 | i | 1
COc1ccc(-c2nc(CN3CCCC(C(=O)NC4CCCC4)C3)c(C)o2)cc1 (stereo not drawn) | i | 0.01
Cc1ccc(S(=O)(=O)N2CCCCC2)cc1NC(=O)COC(=O)c1cc[n+]([O-])cc1 | i | 0.34
O=C(NNC(=O)c1ccccc1-n1cccc1)c1ccc(F)cc1 | i | 2.61
COc1ccc(-n2c(SCC(=O)NCc3cccs3)nc3[nH]ncc3c2=O)cc1 | i | 0.23
COc1cccc(C(=O)Nc2nnc(SCC(=O)NC3CCCC3)s2)c1 | i | -0.88
C(=N/Nc1cc(N2CCOCC2)nc(N2CCOCC2)n1)/c1ccccc1 | i | 0.07
CCOc1ccc(OCCSc2nnnn2C2CCCCC2)cc1 | i | -0.48
O/N=C/c1cccn1-c1ccc(O)cc1 | i | -0.99
CCCc1cc2c(cc1NC(=O)c1ccccc1F)OCO2 | i | -1.38
CCN(Cc1cn2cccnc2n1)C1CCCCC1 | i | 0.4
FC(F)(F)c1cc(-c2ccccc2)nc2ncnn12 | i | -0.73
CCC1SC2=NC(C)=C(C(=O)OCC(C)C)C(/C=C/c3ccccc3OC)N2C1=O (stereo not drawn) | i | -0.21
CCN1/C(=C/C=C/c2oc3ccc4ccccc4c3[n+]2CC)Oc2ccc3ccccc3c21 | i | 7.46
COC(=O)c1nnn(-c2nonc2N)c1CSCCO | i | 0.09
c1ccc(COc2ccc(CNCc3cccs3)cc2)cc1 | i | 0.16
CN(CP(=O)(O)CN(C)S(C)(=O)=O)S(C)(=O)=O | i | -1
ClCc1cc2ccccc2nc1Cl | i | 1.58
O=C(NCCCn1ccnc1)c1cc(-c2cccs2)on1 | i | 2.01
Cc1cccc(C(=O)Oc2ccc(/C=N/NC(=O)c3ccccc3O)cc2)c1 | i | -0.05
CCC(C)(C)NC(=O)C(c1cccn1C)N(C(=O)Cn1nnc2ccccc21)c1ccc(OC)cc1OC (stereo not drawn) | i | 1.48
COC(=O)CC(c1ccc(OC)c(OC)c1)c1ccc(OC)c(OC)c1 | i | 1.97
Cn1cc(CN2CCC(C(=O)Nc3cccc(-c4cccc(F)c4)c3)CC2)cn1 | i | 1.45
COCCn1c(C)cc2c(c1=O)C(c1ccco1)C(C#N)=C(N)O2 (stereo not drawn) | i | 0.01
CCOc1ccc(Nc2nc(NCC3CCCO3)c3ccccc3n2)cc1 (stereo not drawn) | -6.71* | -0.62*
Cc1cc(C)c2c(CN3CCC(C)CC3)cc(=O)oc2c1C | i | -0.63
O=C1C2CCCN2C(=O)N1CCCCN1CCN(c2cccc(Cl)c2)CC1 (stereo not drawn) | i | 0.52
CC(C)(C)NC(=O)Cn1nnnc1-c1nonc1N | i | -0.06
CC(C)CNC(=O)c1ccccc1NC(=O)c1ccccc1N(C)S(=O)(=O)c1ccccc1 | i | -1.7
O=C(CC1C(=O)N(c2ccc(F)cc2)C(=O)N1Cc1ccccn1)Nc1ccccc1 (stereo not drawn) | i | 0.85
COc1ccc(N2CCN(C(=O)c3[nH]c4ccc(OC)cc4c3C)CC2)cc1 | i | 0.12
CC(C)CCNc1nc2c(cc1C#N)COC(C)(C)C2 | i | -0.01
COc1c(O)ccc2cnn(-c3ccccc3C)c(=O)c12 | i | 0.27
O=C(NCCOc1ccc(Cl)cc1)c1ccc2ccccc2n1 | -6.3* | -1.56*
CCCCN(CC)CCCNC(=O)c1cn(CC(C)C)c(=O)c2c1c1ccccc1n2C | i | 0.26
CC(C)(C)/C(COc1ccccc1[N+](=O)[O-])=N/O | i | -0.24
CCOC(=O)C1(CC2CCCCO2)CCN(C(=O)Nc2ccccc2)CC1 (stereo not drawn) | i | 0.25
COc1cc(/C=N/NS(=O)(=O)c2ccc(C)cc2)ccc1OCc1ccc(C(=O)O)cc1 | i | -1.69
COCCCN(C(=O)c1ccccc1)c1nc(-c2ccc(OC)cc2)cs1 | -5.94* | -0.14*
N#Cc1sc2nc(C3CC3)cc(-c3ccccc3)c2c1N | i | 0.7

As a short view, 16 of the compounds above.
SMILES | KCNQ2 inh | KCNQ2 inh baseline
CN(C)S(=O)(=O)c1ccc(N2CCCC2)c(C(=O)NCc2ccccc2)c1 | i | -0.05
O=C1C(c2ccccc2)NC(=S)N1C1CCCCC1 (stereo not drawn) | i | -2
O=C(CCN1CCOCC1)c1ccc2c(c1)OCCO2 | -7.41* | 2.01*
Cc1ccc(NC(=O)C2CCN(S(=O)(=O)c3cccs3)CC2)cc1 | i | -0.62
O=C(C(Cl)c1ccccc1)N1CCOCC1 (stereo not drawn) | i | -1.96
CCOC(=O)C1=C(C)NC2=C(C(=O)c3ccccc32)C1c1ccc([N+](=O)[O-])o1 (stereo not drawn) | i | 0.6
CC1=NNC(=O)/C1=C\c1cn(-c2ccccc2)nc1-c1ccccc1 | i | -1.66
O=C(NN1C(=O)C2C3CCC(O3)C2C1=O)c1ccc(Br)o1 (stereo not drawn) | i | -0.98
COc1ccc(N2CCN(C(=O)c3cc(=O)[nH]c4ccccc34)CC2)cc1 | i | 0.03
Cc1cc2cc(CNC(=O)Cc3cccs3)ccc2n1C | i | -0.82
COc1cc(/C=N/NC(=O)CCN2CCN(C(c3ccccc3)c3ccccc3)CC2)ccc1O | i | -0.13
N#C/C(=C\N1CCN(Cc2ccc3c(c2)OCO3)CC1)c1nc2ccccc2s1 | i | 0.15
CC(=O)N/N=C\c1ccccc1OC/C=C/c1ccccc1 | i | -2.21
CCOc1cc(Br)c(CC(=O)O)cc1OCC | i | 0.69
O=C(CCn1nc(-c2ccccc2)ccc1=O)N1CCCC1 | i | 1.25
COC(=O)c1ccc(NC(=O)CNS(=O)(=O)c2cccs2)cc1 | i | 0.18

Continued:
SMILES | KCNQ2 inh | KCNQ2 inh baseline
COc1ccccc1C(=O)Nc1nnc(S(=O)(=O)N2CCC(C)CC2)s1 | i | -0.81
CC12CC3CC(C)(C1)CC(C(=O)NCc1ccco1)(C3)C2 | i | 0.09
CC1CCN(C(=O)CCNC(=O)c2ccccc2)CC1 | i | 0.32
Cc1ccc2c(C)c(C(=O)N(C)C(C)c3ccncn3)oc2c1C (stereo not drawn) | i | -0.56
COc1ccc(CNc2ncc(-c3ccccc3)n2C)c2ccccc12 | -5.67* | 2.68*
CC(=O)c1ccc(NC(=O)Nc2cccc3ccccc23)cc1 | i | -0.24
O=C(CSc1nnc(-c2ccncc2)n1C1CCCCC1)Nc1cccc(O)c1 | i | -0.05
O=C(COC(=O)C1Cc2ccccc2CN1C(=O)c1ccccc1)Nc1ccc(SC(F)F)cc1 (stereo not drawn) | i | -0.16
CN(C)CCNC(=O)c1sc2nc(-c3ccccc3)cc(C(F)(F)F)c2c1N | i | 0.84
O=C(CS(=O)(=O)c1ccccc1)Nc1ccc(N2CCOCC2)cc1 | i | 1.13
COc1ccc(NC(=O)CN2CCC(C(=O)c3ccc(C)cc3)CC2)c(OC)c1 | i | 0.02
CCN(CC)CCNC(=O)c1ccc(NC(=O)c2cc(S(=O)(=O)N3CCCCC3)ccc2C)cc1 | i | 0.53

Assay outcomes (PubChem)
